UCH37 DUB inh – inhibitors of human UCH37 deubiquitinase, primary screen, biochemical, Ub-AMC cleavage, fluorescence; Ubiquitin carboxyl-terminal hydrolase isozyme L5 (Homo sapiens), Q9Y5K5; AID 588478, 2011; purified proteasome/UCH37; inhibition, % (test concentration not listed); 0.33% of 330,000 active;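 active = mean of two replicates above 20%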;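 note: 0% = compound-free wells with enzyme and 100% = wells lacking proteasome; stock transfer was 100 nL into about 20 µL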
Target sequence (Q9Y5K5 whole entry, looked up): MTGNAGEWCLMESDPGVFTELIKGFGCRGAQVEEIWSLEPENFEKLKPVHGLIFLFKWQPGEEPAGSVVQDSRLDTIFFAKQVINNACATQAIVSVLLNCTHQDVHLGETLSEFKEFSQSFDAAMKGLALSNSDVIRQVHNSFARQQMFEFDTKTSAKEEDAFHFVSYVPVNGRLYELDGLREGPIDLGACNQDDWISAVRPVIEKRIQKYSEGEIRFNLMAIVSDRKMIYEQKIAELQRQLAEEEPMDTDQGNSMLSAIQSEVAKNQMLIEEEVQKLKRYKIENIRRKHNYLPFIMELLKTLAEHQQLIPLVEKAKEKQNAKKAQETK
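Test system – human UCH37 enzyme supplied as purified proteasome complex · Incubation – 30 min preincubation with enzyme, 25 min cleavage at room temperature · Detection – AMC fluorescence from Ub-AMC cleavage, excitation 355 nm, emission 460 nm · Benchmarks – no-proteasome wells (full inhibition) and compound-free wells (no inhibition)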
HNF4A DNA FP – change in binding of human HNF4A to DNA, primary screen, biochemical, fluorescence polarization, FITC-DNA | Hepatocyte nuclear factor 4-alpha (Homo sapiens), P41235 | 1 h | activity change, % at 10 µM | 0.3% of 360,000 active | AID 1224865, 2016; in the data active = activity change above about 30%, passing the limit was not always enough;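 note: controls were the assay level and a saturating level of protein; the project sought stronger binding though the title names inhibitors; some compounds called inactive have numbers as strong as hits; positive values seem to mean higher polarization but the record does not say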
E coli growth – E. coli growth inhibition, primary screen, OD600; 0.21% of 330,000 active; Escherichia coli growth, 23 h; hits give low values; OD600 absorbance (concentration not given with the values); AID 1053175, 2014;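 active = OD600 absorbance below the run mean of sample wells minus 3.6 SD, in any replicate, cut at about 0.56 in these data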;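 note: stock transfer was 300 nL into about 60 µL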
ALR H2O2 inh – inhibitors of human ALR sulfhydryl oxidase, primary screen, biochemical, H2O2 detection, HRP-luminol luminescence, single point | FAD-linked sulfhydryl oxidase ALR (Homo sapiens), P55789 | purified ALR, DTT oxidation | inhibition, % (test concentration not listed) | 3.8% of 290,000 active | AID 485317, 2010;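 active = mean and each replicate at 75% or more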;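 note: stock transfer was 7.5 nL into about 7.5 µL; 0% = neutral wells and 100% = wells with inactivated enzyme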
Target sequence (P55789 whole entry, looked up): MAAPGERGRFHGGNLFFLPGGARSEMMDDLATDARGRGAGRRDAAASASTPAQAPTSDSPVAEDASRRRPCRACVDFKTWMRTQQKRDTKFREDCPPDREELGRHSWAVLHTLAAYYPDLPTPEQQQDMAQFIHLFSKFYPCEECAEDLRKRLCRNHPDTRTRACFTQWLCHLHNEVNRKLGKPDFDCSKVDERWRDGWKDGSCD
Beta2AR agonist – beta2AR agonists driving receptor internalization, primary screen, cell-based, FAP fluorogen, flow cytometry; Beta-2 adrenergic receptor (Homo sapiens), P07550; Am2.2-beta2AR cells; reference of the scale not given here; response, % (concentration not given with the values); 0.43% of 340,000 active; AID 504454, 2011;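 active = response above a set limit, near 3 SD of response in nonfluorescent compounds, cut at about 42% in these data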;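 note: stock transfer was 100 nL into about 11 µL; a reference agonist was the positive control; negative values mostly stem from fluorescent compounds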
FGF22 binding – binders of human FGF22 protein, primary screen, FGF22 synaptogenesis inhibitor project, biophysical, thermal shift, single point. Fibroblast growth factor 22 (Homo sapiens), Q9HCT0. recombinant FGF22 thermal shift, SYPRO orange fluorescence; percent of sucrose octasulfate shift, DMSO zero. calls only at 9.99 µM. 1.5% of 340,000 active;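 active = melting point raised past a set limit in the mean and every replicate; three in four hits are not shown here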
Target sequence (Q9HCT0 whole entry, looked up): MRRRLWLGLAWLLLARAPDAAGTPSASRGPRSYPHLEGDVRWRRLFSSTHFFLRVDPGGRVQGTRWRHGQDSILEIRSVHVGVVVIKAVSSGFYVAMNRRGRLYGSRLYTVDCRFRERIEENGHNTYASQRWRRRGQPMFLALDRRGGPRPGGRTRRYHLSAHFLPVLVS
Ecoli rRNA inh – reduced GFP signal of wild-type E. coli, primary screen, bacterial rRNA inhibitor project, GFP/RFP fluorescence, OD600, single point; 1.6% of 350,000 active; E. coli WT GFP vs humanized-ribosome RFP mutants, 24 h; hits give low values; DMSO median 0, no signal -100; GFP signal change (wild-type ribosome), % (no concentration beside the values); AID 720706, 2013;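 active = significant combined selectivity score with lowered wild-type GFP, culture density cut under 30%, mutant RFP and density less affected; inactive = any of these conditions unmet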; note: one replicate is shown; some compounds called inactive have numbers as strong as hits
Ecoli rRNA inh OD600 – second read-out of Ecoli rRNA inh, no call of its own (marks repeat the call); OD600 change, %; measured here: OD600 growth;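 optical density of the mix in the first replicate; 0 = DMSO median and -100 = no signal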
Ecoli rRNA inh RFP – second read-out of Ecoli rRNA inh, no call of its own (marks repeat the call); RFP signal change, %; measured here: RFP humanized mutant strains;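 first replicate; 0 = DMSO median and -100 = no signal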
* = called active by the depositor; i = inactive; · = no result given; & = joins results of further samples.

SMILES	UCH37 DUB inh	HNF4A DNA FP	E coli growth	ALR H2O2 inh	Beta2AR agonist	FGF22 binding	Ecoli rRNA inh	Ecoli rRNA inh OD600	Ecoli rRNA inh RFP
COc1ccc(N2CCN(S(=O)(=O)c3c(C)n(C)c(=O)n(C)c3=O)CC2)cc1	0.8	-0.8	0.72	14	0	i	2	4	0.3
COc1ccc(-c2nc(C)sc2CC(=O)O)cc1	3.1	-1.4	0.75	-5	1	·	·	·	·
Cc1cccc(NC(=O)CCc2ccccc2)c1	-1.9	-2.0	0.7	-2	-4	i	5	4	0.4
CCOC(=O)c1cc(-c2ccccc2)n(CC(=O)O)c1C	7.1	-1.5	0.77	-1	8	·	·	·	·
COC(=O)c1cn(C(=O)c2ccc(Br)o2)c2ccccc12	-0.3	-2.6	0.63	3	4	·	·	·	·
O=C(O)c1cc([N+](=O)[O-])ccc1C(=O)Nc1cccc([N+](=O)[O-])c1	1.3	-0.9	0.65	·	-9	i	4	6	-6.2
Cc1cc(C)c2c(N)c(C(=O)NC3CCCC3)sc2n1	-126	0.4	0.68	-3	-15	i	-2	-9	-3.5
C=CCn1c(C)nc2c(sc3nc4c(cc32)COC(C)(C)C4)c1=O	-12	6.7	0.65	31	-3	i	·	·	·
CCN(Cc1nc2ccccc2c(=O)[nH]1)C(=O)c1cccc(OCc2c(C)noc2C)c1	2.4	-1.8	0.67	·	6	i	3	-3	0.8
CCCCC(=O)N1CCN(c2nc3ccc(F)cc3s2)CC1	4.9	3.5	0.73	-3	2	i	-6	-25	-3.2
Cn1nc(C(F)(F)F)c(-c2cccc(C(F)(F)F)c2)c1NC(=O)CSCC(=O)O	-4.0	-2.8	0.66	-3	5	i	9	16	0.5
CN(CC(=O)NC(=O)NCc1ccccc1)Cc1ccc(Cl)c(Cl)c1	1.3	-2.0	0.65	2	-2	·	·	·	·
O=C1N=C(N2CCOCC2)S/C1=C\C=C/c1ccccc1	16	2.8	0.65	4	-6	·	·	·	·
CCOc1ccc(CCNC(=O)CCC(=O)N2CCOc3ccc(C)cc32)cc1OCC	2.1	-1.9	0.77	-11	1	i	-2	3	-11
O=C1NC(Cc2ccccc2)c2nc3ccccc3c(=O)n2-c2ccc(Cl)cc21 (stereo unspecified)	·	·	·	-2	·	i	2	0	-5.5
CCOC(=O)Cn1ccc(NC(=O)COc2ccc(F)cc2)n1	1.6	-2.1	0.63	-4	6	i	9	9	-1.7
Cc1ccc2c(C(=O)CN3CCCC3)c(C)[nH]c2c1	1.9	-1.6	0.66	-18	3	·	·	·	·
CS(=O)(=O)/C(C#N)=C/c1c(-c2ccccc2)nc2n1CCS2	-0.3	0.1	0.63	-11	-41	i	-4	-9	-1.6
CC(C)C(NS(=O)(=O)c1cccc(C(F)(F)F)c1)C(=O)N1CCc2ccccc2C1 (stereo unspecified)	2.2	2.2	0.72	1	-1	i	-3	-25	-4.9
Cn1c(CNC(=O)CNC(=O)c2cccc(F)c2)cc(=O)n(C)c1=O	2.8	2.3	0.66	0	-7	i	11	10	4.6
CC(C)C1Cc2c(C#N)c(N)sc(=S)c2CO1 (stereo unspecified)	5.0	-3.1	0.71	44	8	·	·	·	·
Nc1cc2nc[nH]c2cc1N	0.7	5.6	0.68	·	0	i	11	25	-2.2
O=C(CN1C(=O)C2C3c4ccccc4C(c4ccccc43)C2C1=O)N1CCOCC1 (stereo unspecified)	3.5	1.7	0.7	-2	-1	·	·	·	·
Nc1ncnc(Nc2ccccc2C(F)(F)F)n1	5.5	0.9	0.74	7	-2	·	·	·	·
COc1ccc(C(=O)CCC(=O)Nc2cccnc2)cc1OC	0.3	-0.2	0.66	-3	0	i	-1	5	2.5
O=C(/C=C/c1ccc(Cl)cc1)c1ccc([N+](=O)[O-])o1	2.6	-0.1	·	·	19	i	11	5	-5.5
CN(C)[C@@H](CO)c1nnc([C@H](Cc2ccc(O)cc2)NC(=O)C2CCNCC2)o1	4.4	-1.9	·	2	-6	i	3	3	-7.5
COc1ccc(C2C(C#N)=C(N)Oc3cc(C)n(Cc4ccco4)c(=O)c32)cc1 (stereo unspecified)	4.5	-4.9	0.68	5	12	·	·	·	·
CC(C)N1CCc2c(sc(NC(=O)Cc3ccccc3)c2C(N)=O)C1	4.4	-0.5	0.77	5	-13	i	9	10	-1.8
C/C=C(\C)CN1CCC(Oc2cc(C(=O)NC3CC3)ccc2OC)CC1	4.0	2.0	0.71	-2	-1	i	5	5	-2.9
O=C(C1CC(=O)N(C2CCCC2)C1)N1CCC(Cc2ccccc2)CC1 (stereo unspecified)	0.2	3.6	0.59	0	6	i	-7	-23	-1.0
O=C(Nc1nccs1)c1ccc2c(=O)n3c(nc2c1)CCCCC3	8.0	-3.2	0.69	-3	-17	·	·	·	·
COCCNc1cc(C)c(C#N)c2nc3ccccc3n12	i	3.5	0.69	9	-20	·	·	·	·
C[C@]12CCC(=O)C=C1CCC1C2CC[C@@]2(C)C1CCC21OCCO1 (stereo partly specified)	1.7	-0.7	0.69	-1	3	i	-54	-73	-18
O=C1CC(N(Cc2ccc3c(c2)OCO3)C(=O)Nc2ccc(F)cc2)C(=O)N1c1ccccc1 (stereo unspecified)	3.6	3.5	0.7	-7	-6	·	·	·	·
c1cc2c(cn1)cnc1cscc12	-19	-1.2	0.68	-42	-6	i	0	10	0.0
NC(=O)c1ccsc1NC(=O)COC(=O)c1nc(Cl)ccc1Cl	1.1	-2.4	0.69	28	-5	i	-3	8	0.3
COc1ccc(S(=O)(=O)N2CCC(C(=O)NCCc3c[nH]c4ccccc34)CC2)cc1	0.5	1.9	0.69	-5	-2	i	1	5	8.1
COc1ccccc1N1CCN(C(=O)c2cn(C)c3ccc(S(=O)(=O)N4CCOCC4)cc3c2=O)CC1	6.9	3.6	0.65	0	-3	i	8	9	-0.7
Nc1nc(NCC2CCCO2)nc(Nc2ccccc2F)c1[N+](=O)[O-] (stereo unspecified)	13	-0.8	0.65	12	-8	i	20	3	1.7

Four neighbouring records out of the list so far, for reference:
SMILES	UCH37 DUB inh	HNF4A DNA FP	E coli growth	ALR H2O2 inh	Beta2AR agonist	FGF22 binding	Ecoli rRNA inh	Ecoli rRNA inh OD600	Ecoli rRNA inh RFP
NC(=O)c1ccsc1NC(=O)COC(=O)c1nc(Cl)ccc1Cl	1.1	-2.4	0.69	28	-5	i	-3	8	0.3
COc1ccc(S(=O)(=O)N2CCC(C(=O)NCCc3c[nH]c4ccccc34)CC2)cc1	0.5	1.9	0.69	-5	-2	i	1	5	8.1
COc1ccccc1N1CCN(C(=O)c2cn(C)c3ccc(S(=O)(=O)N4CCOCC4)cc3c2=O)CC1	6.9	3.6	0.65	0	-3	i	8	9	-0.7
Nc1nc(NCC2CCCO2)nc(Nc2ccccc2F)c1[N+](=O)[O-] (stereo unspecified)	13	-0.8	0.65	12	-8	i	20	3	1.7

Three entries drawn at random from the list so far, as already listed:
SMILES	UCH37 DUB inh	HNF4A DNA FP	E coli growth	ALR H2O2 inh	Beta2AR agonist	FGF22 binding	Ecoli rRNA inh	Ecoli rRNA inh OD600	Ecoli rRNA inh RFP
CC(C)C1Cc2c(C#N)c(N)sc(=S)c2CO1 (stereo unspecified)	5.0	-3.1	0.71	44	8	·	·	·	·
COc1ccc(S(=O)(=O)N2CCC(C(=O)NCCc3c[nH]c4ccccc34)CC2)cc1	0.5	1.9	0.69	-5	-2	i	1	5	8.1
COCCNc1cc(C)c(C#N)c2nc3ccccc3n12	i	3.5	0.69	9	-20	·	·	·	·

Going on with the list.
SMILES	UCH37 DUB inh	HNF4A DNA FP	E coli growth	ALR H2O2 inh	Beta2AR agonist	FGF22 binding	Ecoli rRNA inh	Ecoli rRNA inh OD600	Ecoli rRNA inh RFP
O=C(NN=C1C2CC3CC(C2)CC1C3)c1cc(Cl)ccc1O	-347	-3.4	0.62	-15	-2	·	·	·	·
N#Cc1ccccc1OCC(=O)Nc1ccc(N2CCOCC2)cc1N1CCOCC1	-0.1	4.3	0.66	·	-7	i	·	·	·
O=C(Cn1c(CN2CCCCC2)nc2ccccc2c1=O)NCc1ccco1	-1.5	-4.0	0.69	-8	-3	·	·	·	·
Cc1ccc(OCCCCN2CCCCC2)cc1	-0.9	-2.4	0.69	-7	-5	i	11	2	7.5
COCCn1c(C)cc(C(=O)CSc2nnc(C3CC3)n2C2CC2)c1C	1.9	-1.1	0.71	13	7	i	-8	-1	-0.9
Cc1cc(C)nc(N/N=C/c2ccc(Cl)cc2)n1	·	1.1	·	6	-4	i	-12	-10	-1.9
CCOC(=O)Cn1cnc2scc(-c3ccccc3)c2c1=O	-0.7	-0.3	0.65	-3	0	·	3	-11	-1.0
CCCN(CCC)S(=O)(=O)c1ccc(C(=O)Nc2cc3oc4ccccc4c3cc2OC)cc1	-4.8	-2.5	0.75	-4	-8	i	·	·	·
COc1ccc(-c2cc(=O)oc3cc(OC(C)C(=O)NC(Cc4c[nH]c5ccc(O)cc45)C(=O)O)ccc23)cc1 (stereo unspecified)	4.8	-0.7	0.72	7	-8	i	·	·	·
O=c1c(Cc2ccc(F)cc2)c(O)ccn1Cc1cccc(Cl)c1	5.1	-2.9	0.77	-19	12	·	·	·	·
Cc1cccc(C2NC(=O)c3c(sc(C)c3C)N2)c1O (stereo unspecified)	5.0	-2.4	0.59	·	-4	·	·	·	·
CCn1cc(C(=O)N[C@@H](CC(C)C)C(=O)NCCCn2ccnc2)c(=O)c2cc3c(cc21)OCO3	-7.6	-0.6	0.67	-5	-14	i	3	11	0.4
O=C(/C=C/c1cc(Br)ccc1F)Nc1cccnc1	4.3	-1.6	0.67	·	-10	i	3	10	6.4
Cc1ccc(CN=C2Nc3ccccc3CS2)cc1	2.0	1.4	0.68	-1	-1	·	·	·	·
O=C(O)CCCCCn1c(SCC(=O)c2ccc(O)c(O)c2)nc2ccsc2c1=O	11	-0.2	0.67	99*	-8	·	·	·	·
CCOC(=O)CN1C(=O)C2(OCCCO2)c2ccccc21	-1.1	-0.9	0.64	-3	0	·	·	·	·
CC1=NN(C(=O)CCc2ccccc2O)C(O)(C(F)(F)F)C1 (stereo unspecified)	1.9	1.6	0.72	34	3	i	8	5	7.2
Cc1ccc(C2=NNC(=O)C(P(=O)(c3ccccc3)c3ccccc3)C2)cc1 (stereo unspecified)	2.9	-1.0	0.68	-1	-2	i	5	9	-2.5
COc1ccc2nc(SCC(=O)NCC(F)(F)F)[nH]c2c1	4.8	-0.6	0.66	1	-5	i	12	10	0.6
S=C1Nc2ccccc2Sc2ccc(Cl)cc21	3.6	2.2	0.71	-4	-1	i	-3	4	0.4
CCCC(C)NC(=O)C1c2ccccc2Oc2ccccc21 (stereo unspecified)	2.1	-2.1	0.69	-10	5	i	14	15	4.0
Cc1nnc(NC(=O)NC(C)N2C(=O)C3C4C=CC(C4)C3C2=O)s1 (stereo unspecified)	2.2&0.0	5.3&0.3	0.68&0.67	1	-2&-5	i	6	16	-3.1
COc1ccc(Nc2nc(N)nc(CSC(=S)N3CCOCC3)n2)cc1	4.3	2.5	0.66	-1	-5	i	-1	1	-1.9
Cc1cccc(NC(=O)CCOc2ccccc2)c1	0.6	0.0	0.77	98*	1	·	·	·	·

A portion of the library; count on the stated rates, not on these rows.
